Screens: PubChem, National Center for Advancing Translational Sciences (NCATS)
HPGD inh = blocks human HPGD enzyme activity | 150,000 compounds, 4.3% hits | Potency, µM, for inactives: top-dose activity change, negative = inhibition, actives largely listed as inhibitors | purified HPGD, NADH fluorescence kinetic, PGE2 substrate; active = well fitted inhibition curve with a large enough effect (not every such curve was filed as active); inconclusive = small, poorly fitted or top-dose-only effect, or another doubt; inactive = no such curve, though single readings can be large or run the other way;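 also: top concentration of the series not given in the record; plate controls included wells without enzyme; inactives centre near -10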
Target sequence (P15428 whole entry, looked up): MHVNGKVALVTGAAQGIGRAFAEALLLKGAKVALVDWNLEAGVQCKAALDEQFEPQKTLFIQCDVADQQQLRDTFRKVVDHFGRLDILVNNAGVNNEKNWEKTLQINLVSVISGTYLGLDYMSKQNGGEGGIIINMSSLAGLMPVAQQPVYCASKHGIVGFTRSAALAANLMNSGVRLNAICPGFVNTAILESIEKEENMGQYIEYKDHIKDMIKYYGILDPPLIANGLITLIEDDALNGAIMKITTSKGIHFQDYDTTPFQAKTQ
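NADH formation kinetics: reaction with 30 uM PGE2 and 1 mM NAD+ (final), 20 nM enzyme, Tris-HCl pH 8 with Tween 20, after 15 min compound preincubation at room temperature. Fluorescence change, last versus first of five reads.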
Active calls of the source: *; u = inconclusive. % is scaled to controls: 0 for no effect and ±100 for the full control effect; potency is read from the fitted curve at half-maximal effect. This is a subset; the hit share may differ from the screen's.

HPGD inh,structure
-17%,Cc1ccc(-c2cccc(NC(=O)C3C4C=CC(C4)C3C(=O)O)c2)o1 (stereo unspecified)
28µM*,Cc1ccccc1N/N=C/c1ccc(N2CCOCC2)cc1
1%,COc1ccccc1CN(CC(=O)NCC1CCCO1)C(=O)CNS(=O)(=O)c1ccc(C)cc1 (stereo unspecified)
-13%,Cn1cnnc1Sc1ccc(C(=O)OCC(=O)Nc2ccccc2)cc1[N+](=O)[O-]
-11%,Cc1ccc(S(=O)(=O)N2CC=C(C(=O)NCc3ccccc3)CC2)cc1
0%,Cn1ncc(C#N)c1/N=C/N1CCCC1
-12%,O=C(CSc1nc2ccccc2c(=O)n1-c1ccc(F)c(Cl)c1)Nc1cccc(S(=O)(=O)N2CCOCC2)c1
-22%,Cc1nc2nc(CSc3nnc(C)s3)cc(=O)n2[nH]1

Seven of the entries above in order of their number in HPGD inh, low to high:
molecule	HPGD inh
Cc1nc2nc(CSc3nnc(C)s3)cc(=O)n2[nH]1	-22%
Cc1ccc(-c2cccc(NC(=O)C3C4C=CC(C4)C3C(=O)O)c2)o1 (stereo unspecified)	-17%
Cn1cnnc1Sc1ccc(C(=O)OCC(=O)Nc2ccccc2)cc1[N+](=O)[O-]	-13%
O=C(CSc1nc2ccccc2c(=O)n1-c1ccc(F)c(Cl)c1)Nc1cccc(S(=O)(=O)N2CCOCC2)c1	-12%
Cc1ccc(S(=O)(=O)N2CC=C(C(=O)NCc3ccccc3)CC2)cc1	-11%
Cn1ncc(C#N)c1/N=C/N1CCCC1	0%
COc1ccccc1CN(CC(=O)NCC1CCCO1)C(=O)CNS(=O)(=O)c1ccc(C)cc1 (stereo unspecified)	1%

(cont.)
HPGD inh,structure
-3%,CCCCOc1ccc(C(=O)NC)cc1
-11%,Cn1ncc(Cl)c1C(=O)Nc1cc(C(F)(F)F)ccc1F
20µM*,COc1ccc(/C=N/NC(=O)CSc2n[nH]c(=O)[nH]c2=O)cc1
-12%,c1cnc2c(c1)ncc1cscc12
u,CCCn1nc(NC(=O)CC(C)C)c2cc3ccccc3nc21
-11%,CC1CCN(CC(=O)Nc2cc(C(F)(F)F)ccc2Cl)CC1
-6%,Cn1cccc1Cc1nnc(SCC(=O)NC2CCCC2)n1CCc1ccccc1
-2%,COCCNS(=O)(=O)c1ccc2c(c1)C(=O)c1cc(S(=O)(=O)NCCOC)ccc1-2
-11%,CCc1ccccc1N1C(=O)C2CC=CCC2C1=O (stereo unspecified)
5µM*,CC(=O)c1c(C)n(-c2ccccc2)c2ccc(O)cc12
-29%,CC(C)(C)c1ccc(OC(=O)Nc2ccc(O)c(C(=O)O)c2)cc1
-3%,CCOc1nc(OCC)nc(N2CCC(C)CC2)n1
1%,Clc1ccc(Cl)c(OCc2cc(-c3ccccc3Cl)on2)c1
-10%,CCOc1ccc(CC(=O)NCc2cn3c(C)csc3n2)cc1
u,CCOC(=O)c1[nH]c2ccc(OC)cc2c1NC(=O)CN1CCc2ccccc2C1
-6%,CCC(=O)NCCc1c[nH]c2ccccc12
13µM*,Cc1cnc(C(=O)Nc2ccc(C(=O)N(C)C3CCCCC3)cc2)cn1
-20%,CC1CCN(CC(O)COCCC23CC4CC(CC(C4)C2)C3)CC1 (stereo unspecified)
-5%,O=C(O)c1cc(O)ccc1-c1ccc(O)cc1
-3%,O=C(O)C1CCCCC1C(=O)Nc1ccccn1 (stereo unspecified)
-11%,COc1ccc(NC(=O)C2CC(c3cc(OC)c(OC)c(OC)c3)=NO2)cc1OC (stereo unspecified)
-10%,CCCCC(c1nnnn1CCOC)N1CCN(c2cccc(OC)c2)CC1 (stereo unspecified)
-1%,CNC(CC(=O)O)C(=O)O (stereo unspecified)
3%,CC(NC(=O)Nc1ccc(F)cc1F)c1ccncc1 (stereo unspecified)
-1%,Fc1ccc(N2CCN(c3ncnc4nc[nH]c34)CC2)cc1
-30%,CC/C(C)=N/Nc1nc2sc3c(c2c(=O)[nH]1)CC(C)(C)OC3
-10%,CC1CN(S(=O)(=O)c2ccc(C(=O)NN3CCN(C)CC3)cc2)CC(C)O1 (stereo unspecified)
28µM*,CCc1ccc(C2C(C#N)=C(N)SC(N)=C2C#N)s1
u,Cn1c(C(=O)NCCCN2CCN(c3cccc(Cl)c3)CC2)cc2c(=O)n(C)c3ccccc3c21
u,Cc1cc(C)c2[nH]c(=O)c(CN(Cc3ccco3)C(=O)c3cccs3)cc2c1
-13%,COC(=O)[C@@H]1CC[C@H](C)[C@@H](c2ccc(C)cc2)N1C(=O)c1ccc(/C=N/OC[C@@H](O)[C@H]2O[C@@H]3OC(C)(C)O[C@@H]3[C@H]2O)cc1
-8%,COc1ccc(C(=O)NCCCc2nc3ccccc3n2Cc2ccccc2C)cc1OC
-19%,O=C(c1ccco1)N1CCC2(CC1)CCN(c1cccc(-c3ccccc3)c1)CC2
-6%,COc1ccc(NC(=O)CN2CCc3ccccc3C2)cc1S(=O)(=O)N1CCOCC1
-12%,COc1ccccc1NC(=O)C1=C(C)Nc2ncnn2C1c1cccs1 (stereo unspecified)
-17%,O=C(COC(=O)Cc1ccc(Cl)cc1Cl)Nc1ccc(OC(F)F)cc1
-9%,CC(C)[C@H](NC(=O)OCc1ccccc1)C(=O)OCC(=O)NC1CCCCC1
-1%,Cc1cccc(NC(=O)CS(=O)(=O)c2cn(C)c3ccccc23)c1
-4%,CS(=O)(=O)N(CC(=O)N1CCN(Cc2ccccc2)CC1)C1CCCCC1
-10%,Cc1cc(OC(C)C)nc(NCc2ccccc2)n1
u,COCCn1c(=O)c(-c2cc(F)cc(F)c2)nc2cnc(N3CCNCC3)nc21
u,COc1ccc(C(=O)/C=C/c2cn(CN3CCN(C)CC3)c3ccccc23)cc1
-3%,O=C(NC1CC2CCC(C1)N2Cc1ccco1)c1ccccc1 (stereo unspecified)
-5%,CC(=O)CSc1ccc(C(=O)O)cn1
-9%,CCOC(=O)N1CCN(c2ncnc3nc[nH]c23)CC1
-20%,Cc1ccccc1NC(=S)NCc1cccs1
-15%,CCOc1ccc(NC(=O)CN(C)CC(=O)Nc2ccccc2SC)cc1OCC
-4%,O=C(Cc1nn[nH]n1)NCCC1=CCCCC1
-10%,CC(c1ccco1)N(C(=O)COc1ccc(Cl)cc1)c1ccccn1 (stereo unspecified)
-12%,CN1/C(=C\C(=O)Nc2cccc(Cl)c2)C(C)(C)c2ccccc21
-7%,Nc1cc(-c2cccc([N+](=O)[O-])c2)[nH]n1
-20%,CCCc1sc(N/N=C/c2ccccn2)nc1-c1ccc(Br)cc1
-65%,Cc1ccc(NC2=NC(c3ccc(O)cc3)n3c(nc(C)cc3=O)N2)cc1 (stereo unspecified)
u,CSc1ccc(CNc2cccc3ccccc23)cc1
-3%,Cc1nn(S(=O)(=O)c2cccs2)c(C)c1Sc1ccc([N+](=O)[O-])cc1
-7%,O=C(Cc1ccccc1)Nn1cnc2ccccc21

A few values from the entries so far.
Cc1nn(S(=O)(=O)c2cccs2)c(C)c1Sc1ccc([N+](=O)[O-])cc1 in HPGD inh reads -3%
O=C(Cc1ccccc1)Nn1cnc2ccccc21 in HPGD inh reads -7%
CN1/C(=C\C(=O)Nc2cccc(Cl)c2)C(C)(C)c2ccccc21 in HPGD inh reads -12%
CC(c1ccco1)N(C(=O)COc1ccc(Cl)cc1)c1ccccn1 (stereo unspecified) in HPGD inh reads -10%

Other records:
HPGD inh,structure
-9%,Cc1cc(C)nc(-n2nc(C)cc2NC(=O)CNC2CCCCC2)n1
2%,CC(C)NS(=O)(=O)c1ccc(OCC(=O)N2CCCC2)cc1
-22%,Cc1ccc(-n2nc(C(=O)N/N=C/c3cccc(C(F)(F)F)c3)c3ccccc3c2=O)cc1C
-23%,O=c1c2ccccc2ncn1CCCSc1ccc(Cl)cc1
-2%,O=C(Cn1nnc2ccccc21)C1CC1
14µM*,O=C(CC(Cc1ccccc1)c1ccco1)NC1CCCCC1 (stereo unspecified)
-6%,COc1cc(C2C(C(C)=O)=C(O)C(=O)N2CCc2ccc(OC)c(OC)c2)ccc1O (stereo unspecified)
-14%,O=C(O)COc1ccc(Br)cc1/C=N/O
-8%,Cc1c(N=Cc2c(O)n(C3CCCCC3)c(=O)[nH]c2=O)c(=O)n(-c2ccccc2)n1C
-14%,CCOc1ccc(NC(=O)CCS(=O)(=O)c2cccc3nsnc23)cc1
u,CCOc1ccc(-c2nnc3ccc(SCC(=O)Nc4nc5ccccc5s4)nn23)cc1
-5%,CCCCC/C=C\C/C=C\C/C=C\C=C\C1CCCC(=O)O1 (stereo unspecified)
-12%,O=C(NC1(C(F)(F)F)NC(=O)N(C2CCCCC2)C1=O)c1cccs1 (stereo unspecified)
-17%,O=C(Cc1cccs1)Nc1ccc(C(=O)O)cc1
1%,COc1ccc(N2CCCCn3c2nc2c3c(=O)[nH]c(=O)n2C)cc1
-4%,C#CC1(O)CC(C)NCC1(C)CCC#N (stereo unspecified)
1%,Cc1ccccc1Oc1ccc(NC(=O)C2CC=CCC2C(=O)O)cc1 (stereo unspecified)
-6%,CCc1nc2ccccc2n1CCC(=O)O
-13%,CSC1=NCCN1C(=O)c1ccc(S(=O)(=O)N2CCOCC2)cc1
-14%,Cc1ccc(Oc2ccc3c(c2)C(=O)N(c2cccc4cccnc24)C3=O)cc1
-6%,CCc1nnc(NC(=O)CSc2nnc(C)n2Cc2ccccc2)s1
-11%,Clc1ccccc1Cn1nnc(-c2cccs2)n1
-25%,COc1cc(C(=O)O)cc(NC(=O)c2cccs2)c1OC
-10%,CCc1cc2cc(C)cc(C)c2nc1SCC(=O)N1CCCC1
-6%,COc1ccc(S(=O)(=O)N2CCOCC2)c(C)c1C
-15%,CC(C)OCC(O)CCc1n[nH]c(=S)n1-c1ccccc1 (stereo unspecified)
u,CC(=O)N1N=C(c2ccc3ccccc3c2)OC1(C)C
-29%,COC(=O)CC1SC(=O)NC1=O (stereo unspecified)
-14%,O=C(O)CNC(=O)c1ccccc1F
-13%,C=C(C)CSc1nnc(-c2ccc(OC)c(OC)c2)n1N
-19%,COCCOC(=O)c1c(C)oc2ccc(OCC=C(C)C)cc12
2.8µM*,COc1ccc(S(=O)(=O)N(C)c2ccc(C(=O)NCC3CCCO3)cc2)cc1 (stereo unspecified)
-1%,Cc1[nH]nc2c1C(c1ccc(F)cc1)C(C#N)=C(N)O2 (stereo unspecified)
u,Nc1c(C(O)(C(F)(F)F)C(F)(F)F)ccc2ccccc12
-25%,CCn1c(=NC(=O)c2ccco2)sc2cccc(F)c21
-8%,Cc1ccccc1C(=O)NC1CCN(CC(=O)Nc2c(C)cccc2C)CC1
-1%,O=C(CCc1nc2ccccc2n1-c1ccccc1)NCCO
-4%,CCCCC(=O)Nc1ncc(Br)s1
-10%,O=C(Nc1ccc2c(c1)OCO2)Nc1cnccn1
-5%,COc1ccccc1N1CCN(c2ccc([N+](=O)[O-])cc2Cl)CC1
-1%,CCOC(=O)C1CCN(c2ncnc3nc[nH]c23)CC1
-16%,[O-]/[N+](=C/c1ccc(F)cc1)c1ccccc1
u,CCOC(=O)C1CCCN(C(=O)CN2C(=O)/C(=C/c3ccc(OC)cc3)Oc3ccccc32)C1 (stereo unspecified)
14µM*,Cc1ccc(OCc2n[nH]c(=S)n2C2CCCCC2)cc1
-16%,C[C@@H](C(=O)Cc1ccc2ccccc2c1)[C@@H]1C[C@@]1(C)[C@@H](NP(=O)(c1ccccc1)c1ccccc1)c1ccccc1
-3%,CC(=O)O[C@@H]1C(=O)[C@@]2(C)[C@H](O)C[C@H]3OC[C@]3(OC(C)=O)[C@@H]2[C@H](OC(=O)c2ccccc2)[C@@]2(O)C[C@H](OC(=O)[C@@H](O)[C@@H](NC(=O)c3ccccc3)c3ccccc3)C(C)=C1C2(C)C (stereo in doubt)
-4%,CC(C)(Oc1ccc([C@@H]2CC2(Cl)Cl)cc1)C(=O)O
4%,CC(C)(C)c1cc(CN2CCC(O)CC2)cc(C(C)(C)C)c1O

The final four records of the part before lead into the next.
HPGD inh,structure
-16%,C[C@@H](C(=O)Cc1ccc2ccccc2c1)[C@@H]1C[C@@]1(C)[C@@H](NP(=O)(c1ccccc1)c1ccccc1)c1ccccc1
-3%,CC(=O)O[C@@H]1C(=O)[C@@]2(C)[C@H](O)C[C@H]3OC[C@]3(OC(C)=O)[C@@H]2[C@H](OC(=O)c2ccccc2)[C@@]2(O)C[C@H](OC(=O)[C@@H](O)[C@@H](NC(=O)c3ccccc3)c3ccccc3)C(C)=C1C2(C)C (stereo in doubt)
-4%,CC(C)(Oc1ccc([C@@H]2CC2(Cl)Cl)cc1)C(=O)O
4%,CC(C)(C)c1cc(CN2CCC(O)CC2)cc(C(C)(C)C)c1O
-4%,CCc1ncc(C(O)c2cccc3ccccc23)n1C (stereo unspecified)
-1%,OC1CCN(c2ncnc3nc[nH]c23)CC1
-16%,O=C(Cn1c(-c2cncs2)nc2ccccc21)NCCc1ccccc1
-14%,O=[N+]([O-])c1cccc(I)c1
u,O=C(c1ccc(N2CN(C(=O)c3ccco3)c3nc4ccccc4nc32)cc1)N1CCOCC1
-2%,CCN(CC(=O)NC1CCS(=O)(=O)C1)c1nc(-c2ccccc2)nc2ccccc12 (stereo unspecified)
-9%,COC(=O)c1cccc(NC(=S)Nc2cccc(Cl)c2Cl)c1
-27%,O=C(NC12CC3CC(CC(C3)C1)C2)c1ccc(-c2cccc(Cl)c2)o1
-11%,COc1ccc2cc(C3(C)NC(=O)N(CC(=O)NCc4ccco4)C3=O)ccc2c1 (stereo unspecified)
-8%,CCOC(=O)N1CCN(S(=O)(=O)c2ccc(C)cc2)C1c1ccccc1 (stereo unspecified)
-15%,COC(=O)c1ccccc1NC(=O)COC(=O)c1ccccc1N=Nc1ccc(N(C)C)cc1
-7%,CCOC(=O)NC(Nc1ncccn1)(C(F)(F)F)C(F)(F)F
-15%,CC(SCc1ccccc1)C(=O)NN=C1CCN(C)CC1 (stereo unspecified)
-17%,Cc1cccc(NC(=O)c2ccc(C(=O)Nc3cccc(C)c3)nc2)c1
-18%,Cc1cc(C)n(-c2ccc(C(=O)N3CCc4ccccc43)cc2)n1
-17%,CSc1ccccc1NC(=O)CN(C)CC(=O)Nc1ccc(Cl)cc1F
-14%,COc1ccc(-c2nnc(SCC(=O)NCc3ccco3)o2)cc1
